VDR inhibitor: blocks the human vitamin D receptor | VDR-SRC2-3 peptide fluorescence polarization, 2 h | Potency, µM, for inactives: max response, negative = inhibition, hits mostly inhibitors | actives 0.93% (n = 400,000) | AID 504847; active = well fitted inhibition curve with a large enough effect; inconclusive = small, poorly fitted or top-dose-only effect, or another doubt; inactive = no such curve, though single readings can be large or run the other way; note: series mostly up to about 120 µM
Target sequence (P11473 whole entry, looked up): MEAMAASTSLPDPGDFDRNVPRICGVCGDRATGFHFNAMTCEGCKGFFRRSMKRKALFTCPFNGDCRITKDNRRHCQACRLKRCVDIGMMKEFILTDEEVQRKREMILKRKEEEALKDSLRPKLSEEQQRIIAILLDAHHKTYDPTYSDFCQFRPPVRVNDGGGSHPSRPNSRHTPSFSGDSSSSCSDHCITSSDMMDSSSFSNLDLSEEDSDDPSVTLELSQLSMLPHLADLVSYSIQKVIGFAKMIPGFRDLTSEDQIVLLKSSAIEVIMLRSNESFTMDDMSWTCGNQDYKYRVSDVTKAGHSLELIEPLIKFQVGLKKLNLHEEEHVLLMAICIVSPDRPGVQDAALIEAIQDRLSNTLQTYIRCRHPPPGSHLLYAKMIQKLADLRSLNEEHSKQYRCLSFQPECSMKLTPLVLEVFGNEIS
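Fluorescence polarization assay measuring small-molecule disruption of VDR binding to the coregulator peptide SRC2-3. Compounds were pin-transferred (23 nl) into the reagent mix and incubated 2 h at room temperature before reading.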
The depositor's hits bear a star; & = joins results of further samples; [ ] = another dose, or the depositor's remark. % is set by controls: 0 for no effect and ±100 for the full control effect; potency is the fitted concentration of half-maximal effect.

CCCCc1nnc(NC(=O)CSc2nc(O)c(Cc3ccccc3)c(=O)[nH]2)s1 was read as VDR inhibitor -3%.
For COc1ccc(S(=O)(=O)N2CCOCC2)cc1NC(=O)COC(=O)C1CC1C (stereo not given) the results were VDR inhibitor 13%.
Cc1cccc(C)c1NC(=O)CNC(=O)CNC(=O)Cc1cccc2ccccc12 was read as VDR inhibitor -2%.
`COc1cc(/C=C/C(=O)OCC(=O)NC2CCCCCCC2)ccc1O` gave VDR inhibitor 5%.
`CC(C)(C)n1nnnc1C(c1ccc(C#N)cc1)N1CCCC2(CCCCC2)C1` (stereo not given) gave VDR inhibitor -18%.
Screening CCc1ccc(NC(=O)Cn2cnc([N+](=O)[O-])c2)cc1 returned VDR inhibitor -20%.
For CCCOc1ccc(-c2c(C(=O)N/N=C/c3cccs3)nnn2-c2nonc2N)cc1 the results were VDR inhibitor -3%.
For CCc1ccccc1NC(=O)Cn1c(=O)n(Cc2ccc3c(c2)OCO3)c(=O)c2ccc(C(=O)NC3CCCCC3)cc21 the results were VDR inhibitor 11%.
For COCCN(C(=O)COC(=O)/C=C/c1nc2ccccc2s1)c1c(N)n(Cc2ccccc2)c(=O)[nH]c1=O the results were VDR inhibitor 1%.
`Cc1cc(S(=O)(=O)NC(C)C)ccc1OCC(=O)N1CCOCC1` gave VDR inhibitor -10%.
For CC(C)NC(=O)C1CCCN(S(=O)(=O)c2cccc3nonc23)C1 (stereo not given) the results were VDR inhibitor 8%.
COc1cc2c(cc1OC)-c1cc(NCc3ccccn3)nc(=O)n1CC2 was read as VDR inhibitor -15%.
CCOC(=O)Nc1sc(C)c(C)c1C(N)=O was read as VDR inhibitor -17%.
For COc1ccc(C(=O)CC(=O)C(=O)Nc2cc(C)ccc2C)cc1 the results were VDR inhibitor -9%.
`CC(C)OC(=O)CSc1nnc(SCc2cccc3ccccc23)s1` gave VDR inhibitor -13%.
C[C@@H]1[C@H](O)C[C@@]23COC(=O)C2=CCC[C@@H]3[C@@]1(C)CC/C(=C/CO)CO was read as VDR inhibitor 1%.
For CC(=O)Nc1cccc(C(=O)Nc2cccc3ncccc23)c1 the results were VDR inhibitor 3%.
O=C(NC1CCCC1)C(c1ccccc1F)N(C(=O)Cc1cccs1)c1ccc2c(c1)OCCO2 (stereo not given) was read as VDR inhibitor 0%.
Screening CCC(=O)c1ccc(OCC(O)Cn2nnc3ccccc32)cc1 (stereo not given) returned VDR inhibitor -2%.
`Cc1nnc(NCc2ccccc2)c2c1nnn2Cc1ccc(F)cc1` gave VDR inhibitor 10%.
Screening CN(Cc1ccccc1)S(=O)(=O)c1ccc(OCC(=O)Nc2cccc([N+](=O)[O-])c2)cc1 returned VDR inhibitor 9%.
For COc1ccc2cc3cc(C(=O)NCCc4ccccc4)sc3nc2c1Cl the results were VDR inhibitor 4%.
Screening CCc1ccc(C2=Nn3c(nnc3-c3cccs3)SC2)cc1 returned VDR inhibitor -7%.
Cc1cc(C)c2c(c1)/C(=N/NS(=O)(=O)c1ccccc1)CCC2 was read as VDR inhibitor 9%.
For CC(=O)c1cccc(NC(=O)c2ccc(S(=O)(=O)N3CC(C)OC(C)C3)cc2)c1 (stereo not given) the results were VDR inhibitor 2%.
`COc1ccccc1CNC(=O)CN(C)S(=O)(=O)c1ccc2c(c1)n(C)c(=O)c(=O)n2C` gave VDR inhibitor -5%.
Screening CC(=O)Nc1ccc(S(=O)(=O)N(C)c2ccc(OCC(=O)OCC(=O)NCc3ccco3)cc2)cc1 returned VDR inhibitor 11%.
For COc1ccc(CC(=O)NCC(C)(C)N2CCOCC2)cc1 the results were VDR inhibitor 4%.
`CCN(CCO)c1nc(SC)nc2c1sc1nc(-c3ccco3)c3c(c12)CCC3` gave VDR inhibitor 0%.
COc1ccc(CNC(=O)c2cc3ccccn3n2)c(OC)c1 was read as VDR inhibitor 9%.
Screening Cc1cccc(CC2S/C(=N/N=C/c3ccco3)NC2=O)c1 (stereo not given) returned VDR inhibitor 3%.
`CC(=O)SC(C)CC(=O)NCc1ccccc1` (stereo not given) gave VDR inhibitor -4%.
O=C(O)CCCCCn1c(SCC(=O)Nc2ccc(F)cc2)nc2ccsc2c1=O was read as VDR inhibitor 19%.
COc1ccccc1NC(=O)Cn1nnc(-c2ccccc2NC(=O)c2cc3ccccc3oc2=O)n1 was read as VDR inhibitor 4%.
CCCc1cc(C(=O)N2CCCN(C)CC2)cs1 was read as VDR inhibitor -1%.
For CC(C)CCNC(=S)Nc1ccc(Br)cc1 the results were VDR inhibitor -3%.
`Cc1ccc2nc(Cl)c3cc(C(=O)NC4CCC(C)CC4)sc3c2c1` (stereo not given) gave VDR inhibitor -16%.
For Cc1cc(C(=O)N/N=C/C=C/c2ccc([N+](=O)[O-])cc2)n[nH]1 the results were VDR inhibitor 6%.
Screening Cc1cc(C)n2nc(-c3ccsc3-n3c(C)ccc3C)cc2n1 returned VDR inhibitor 42%[activator].
Screening CSc1nc2ccccc2c(=O)n1Cc1ccc(F)cc1 returned VDR inhibitor -2%.
`CCCCCn1c(N2CCOCC2)nc2c1c(=O)n(CC(N)=O)c(=O)n2C` gave VDR inhibitor -6%.
`Cc1ccc2oc(C(=O)N(Cc3ccccc3F)C3CCS(=O)(=O)C3)c(C)c2c1` (stereo not given) gave VDR inhibitor 1%.
Screening COc1ccc(C2C(C(=O)O)c3ccccc3C(=O)N2C)cc1Br (stereo not given) returned VDR inhibitor -8%.
For N#CC1(NC(=O)COC(=O)/C=C/c2ccc3ccccc3n2)CCCCC1 the results were VDR inhibitor 14%.
O=C(/C=C/c1ccccc1)C1C(=O)c2ccccc2C1=O was read as VDR inhibitor -2%.
For COc1ccc(Cl)cc1NC(=S)NC(=O)c1ccc2c(c1)OCO2 the results were VDR inhibitor -4%.
COc1ccc(-c2cc3c(=O)n(CC(=O)NCc4cccnc4)nc(C)n3n2)cc1 was read as VDR inhibitor 24%.
For Cc1ccc(-c2noc(-c3nnn(-c4cccc(C(F)(F)F)c4)c3N)n2)cc1 the results were VDR inhibitor 8%.
Screening COc1ccccc1Nc1ncc2c(n1)CCN(Cc1ccc(C)s1)C2 returned VDR inhibitor 4%.
`O=C(NC(=S)N1CCc2ccccc21)c1ccccc1Cl` gave VDR inhibitor -2%.
COc1cc(OC)c(NC(=O)c2ccc3nc(C(C)C)oc3c2)cc1Cl was read as VDR inhibitor 9%.
`O=C(NC(=S)Nc1ccc(CN2CCOCC2)cc1)c1cc2ccccc2o1` gave VDR inhibitor 25%.
`COc1ccccc1-n1nnnc1SCC(=O)N(C)C1CCS(=O)(=O)C1` (stereo not given) gave VDR inhibitor -9%.
`C/C(Cl)=C\Cn1c(NCCc2ccccc2)nc2c1c(=O)n(C)c(=O)n2C` gave VDR inhibitor -24%.
`CC(C)(C)c1ccc(OCC(=O)Nc2ccc(-c3nc4cccnc4o3)cc2)cc1` gave VDR inhibitor 13%.
Cc1ccc(CN2CCN(Cc3ccc4c(c3)OCCO4)CC2CCO)cc1 (stereo not given) was read as VDR inhibitor -17%.
`COc1ccc(-n2c(N)c(C(=O)NCC3CCCO3)sc2=S)cc1` (stereo not given) gave VDR inhibitor 5%.
Screening CC1(C)CC(=O)c2cc(C(=O)NC3CCSC3=O)c(=O)n(-c3ccccc3)c2C1 (stereo not given) returned VDR inhibitor 10%.
For Cc1ccc(S(=O)(=O)N2CCOCC2)cc1NC(=O)COC(=O)Cc1ccsc1 the results were VDR inhibitor 3%.
For COc1ccc(S(=O)(=O)N2CC(C)N(C(=O)N(C)C)C2C(C)C)cc1 (stereo not given) the results were VDR inhibitor 0%.
For CCCNC(=S)N1CCN(c2nc(C)nc3sc4c(c23)CCCC4)CC1 the results were VDR inhibitor 8%.
Screening CC[C@@]1(c2ccccc2)NC(=O)NC1=O returned VDR inhibitor 1%.
O=C(Nc1cc(C(F)(F)F)ccc1N1CCOCC1)c1ccccc1 was read as VDR inhibitor 3%.
CN1C(=O)C(O)(CC(=O)/C=C/c2ccco2)c2cc(Br)ccc21 (stereo not given) was read as VDR inhibitor 0%.
COc1ccc(-c2nnc(SCC(=O)Nc3c(C)cccc3C)nc2-c2ccc(OC)cc2)cc1 was read as VDR inhibitor -13%.
`CN(C)CCCNc1ccc(-c2nn(C)c(=O)c3ccccc23)cc1[N+](=O)[O-]` gave VDR inhibitor 13%.
`CCOc1ccccc1/C=N/NC(=O)c1ccc(Cn2cc([N+](=O)[O-])cn2)o1` gave VDR inhibitor 6%.
O=C1N[C@@H](Cc2cn(S(=O)(=O)c3ccccc3)c3ccccc23)C(=O)N[C@H]1Cc1ccccc1 was read as VDR inhibitor 1%.
For CC(/C=C/C1(O)C(C)CC(=O)CC1(C)C)OC1OC(CO)C(O)C(O)C1O (stereo not given) the results were VDR inhibitor -24%.
Screening CCOC(=O)C1=C(O)c2ccccc2C(=O)/C1=C\c1ccc(C)cc1 returned VDR inhibitor inconclusive.
For COc1cccc(NC(=O)[C@H](Cc2ccccc2)NC(=O)[C@@H]2Cc3ccccc3CN2)c1 the results were VDR inhibitor 4%.
`CCCCOc1ccc(OCCSc2nc3ccccc3n2CC(=O)O)cc1` gave VDR inhibitor -5%.
Screening CC1(C)CC(=O)C(N=Nc2cc(C(F)(F)F)ccc2Cl)=C(O)C1 returned VDR inhibitor -22%.
For Cc1cc(C)n(-c2ccc(C(=O)NCc3cccs3)cc2)n1 the results were VDR inhibitor 2%.
`COc1nc(Nc2cccc(F)c2)nc(OC)n1` gave VDR inhibitor -15%.
For CCC1(c2ccccc2)NC(=O)N(CC(=O)Nc2cc(Cl)ccc2N2CCN(C)CC2)C1=O (stereo not given) the results were VDR inhibitor 7%.
Cc1ccc(NC(=S)Nc2cccnc2)c(S(=O)(=O)N2CCCCC2)c1 was read as VDR inhibitor 5%.
`COc1ccc(NC(=O)c2ccc3c(c2)CCN3S(=O)(=O)c2ccccc2)cc1` gave VDR inhibitor 22%&10%.
For CCOc1ccc(NC(=O)CN(C)C(=O)c2cc([N+](=O)[O-])ccc2N2CCOCC2)cc1OCC the results were VDR inhibitor 7%.
CCc1ccccc1NC(=O)N1CC(C)Sc2ccccc21 (stereo not given) was read as VDR inhibitor 7%.
`O=C(NCCCN1CCOCC1)C(=O)N/N=C/c1cccc2ccccc12` gave VDR inhibitor 7%.
Screening O=C(CSc1ncccn1)N/N=C/c1cccs1 returned VDR inhibitor -1%.
COCCNCCCCOc1ccccc1-c1ccccc1 was read as VDR inhibitor 15%.
For CC1=CC(C)(C)N(C(=O)CSc2nnc(N)s2)c2cc(C)c(C)cc21 the results were VDR inhibitor 11%.
For COc1cc(C=Nc2c(C)cc(C)cc2C)ccc1OC(C)=O the results were VDR inhibitor 3%.
`COc1ccccc1N=CC1=C(O)CC(c2ccccc2)CC1=O` (stereo not given) gave VDR inhibitor -12%.
O=C(O)/C=C/c1cccc(NC(=O)Nc2ccc([N+](=O)[O-])cc2)c1 was read as VDR inhibitor -16%.
O=C(c1ccc(S(=O)(=O)c2ccccc2)cc1)N1CCCCCC1 was read as VDR inhibitor -8%.
Screening COc1cccc(CC2(CO)CCCN(Cc3cnn(-c4ccccc4)c3)C2)c1 (stereo not given) returned VDR inhibitor -8%.
c1ccc(NNC2=NCCCCC2)cc1 was read as VDR inhibitor -27%.

A draw from above in order of length of the SMILES, rising:
Screening O=C(CSc1ncccn1)N/N=C/c1cccs1 returned VDR inhibitor -1%.
CCc1ccccc1NC(=O)N1CC(C)Sc2ccccc21 (stereo not given) was read as VDR inhibitor 7%.
`COc1ccccc1N=CC1=C(O)CC(c2ccccc2)CC1=O` (stereo not given) gave VDR inhibitor -12%.
O=C(c1ccc(S(=O)(=O)c2ccccc2)cc1)N1CCCCCC1 was read as VDR inhibitor -8%.
`O=C(NCCCN1CCOCC1)C(=O)N/N=C/c1cccc2ccccc12` gave VDR inhibitor 7%.
O=C(O)/C=C/c1cccc(NC(=O)Nc2ccc([N+](=O)[O-])cc2)c1 was read as VDR inhibitor -16%.
For CCC1(c2ccccc2)NC(=O)N(CC(=O)Nc2cc(Cl)ccc2N2CCN(C)CC2)C1=O (stereo not given) the results were VDR inhibitor 7%.

(list continues)
Cc1ccc(S(=O)(=O)c2nc(-c3ccccc3)oc2NCCN2CCOCC2)cc1 was read as VDR inhibitor -11%.
Screening CCNS(=O)(=O)c1cc(OC)ccc1OC returned VDR inhibitor -1%.
Screening O=C(Nc1cccnc1)c1ccc(Cl)c(S(=O)(=O)N2CCOCC2)c1 returned VDR inhibitor -10%.
For Cc1ccc(NC(=O)c2ccc3c(c2)CCN3S(C)(=O)=O)cc1C the results were VDR inhibitor inconclusive.
CNC(=S)NNC(=O)c1cccc(N(C)C)c1 was read as VDR inhibitor -8%.
`COCCN(C(=O)CN1CCCc2ccccc21)c1c(N)n(Cc2ccccc2)c(=O)[nH]c1=O` gave VDR inhibitor -7%.
CCN(C(=O)COC(=O)C(C)(C)Oc1ccc(Cl)cc1)c1c(N)n(Cc2ccccc2)c(=O)[nH]c1=O was read as VDR inhibitor -14%.
Cc1ccccc1-c1nc2c(c(SCc3cccc(Cl)c3)n1)Cc1c(CO)cnc(C)c1O2 was read as VDR inhibitor -8%.
`Cc1ccc(OCCNC(=O)c2cccc(C)c2)cc1` gave VDR inhibitor -4%.
`CCCCN(C1CCS(=O)(=O)C1)S(=O)(=O)c1cccs1` (stereo not given) gave VDR inhibitor inconclusive.
For CC(=O)Nc1cccc(CP(=O)(c2ccccc2)c2ccccc2)c1 the results were VDR inhibitor -7%.
COc1ccc(-c2cc(-c3ccccc3)nc(SC(C)C(=O)O)c2C#N)cc1 (stereo not given) was read as VDR inhibitor inconclusive.
Screening Cc1cc(Cl)ccc1NNC(=O)c1snnc1C returned VDR inhibitor inconclusive.
For Cc1occc(=O)c1OCc1ccc(Cl)cc1Cl the results were VDR inhibitor -4%.
For O=S(=O)(c1ccc2nc(Cc3ccccc3)[nH]c2c1)N1CCOCC1 the results were VDR inhibitor -12%.
For Cc1ccccc1CNC(=O)Cc1csc2ccccc12 the results were VDR inhibitor 13%.

Bioassay records deposited in PubChem by National Center for Advancing Translational Sciences (NCATS).

Not all compounds are listed. The share of hits here may be higher or lower than overall.
